D2 PAM = human D2 receptor positive allosteric modulation. actives 0.23% (n = 360,000). potentiation, % (test concentration not listed). DiscoveRx D2 beta-arrestin cells, luminescence, 90 min; 100% = 57 uM dopamine signal. AID 624464; active = potentiation of 50% or more; inconclusive = 30% to 50%; inactive = 30% or less;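 further: compound concentration not given in the record; tested on top of an EC20 dose of dopamine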
Target sequence (P14416 whole entry, looked up): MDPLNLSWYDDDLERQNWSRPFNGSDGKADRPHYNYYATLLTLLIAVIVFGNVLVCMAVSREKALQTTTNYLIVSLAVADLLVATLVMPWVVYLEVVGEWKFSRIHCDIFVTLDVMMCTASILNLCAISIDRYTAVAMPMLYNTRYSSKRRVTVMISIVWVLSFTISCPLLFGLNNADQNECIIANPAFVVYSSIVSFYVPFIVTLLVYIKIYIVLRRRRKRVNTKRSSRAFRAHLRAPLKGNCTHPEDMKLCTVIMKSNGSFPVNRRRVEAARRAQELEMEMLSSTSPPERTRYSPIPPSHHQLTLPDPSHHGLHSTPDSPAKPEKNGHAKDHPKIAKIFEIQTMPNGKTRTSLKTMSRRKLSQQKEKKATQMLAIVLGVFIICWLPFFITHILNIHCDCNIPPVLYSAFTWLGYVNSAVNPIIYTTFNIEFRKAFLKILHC
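PathHunter D2 cells, attached overnight at 37 deg C, received compound in DMSO plus dopamine at EC20 (50 nM final) for 90 min at 37 deg C. Beta-arrestin recruitment was read as luminescence after 1 h with detection reagent at ambient temperature.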
TRPML1 agonist = agonists of human TRPML1 channel; Q9GZU1; activation, % (test concentration not listed); TRPML1-expressing cells, Ca2+ dye fluorescence, FDSS; host cell line not named in the record; reference of the full effect not given here; actives 0.12% (n = 410,000); in the data active = activation above about 50%; inconclusive = about 30% to 50%; inactive = below about 30%; further: 0% is about no effect; the text of the record puts the active cut at 80%
Target sequence (Q9GZU1 whole entry, looked up): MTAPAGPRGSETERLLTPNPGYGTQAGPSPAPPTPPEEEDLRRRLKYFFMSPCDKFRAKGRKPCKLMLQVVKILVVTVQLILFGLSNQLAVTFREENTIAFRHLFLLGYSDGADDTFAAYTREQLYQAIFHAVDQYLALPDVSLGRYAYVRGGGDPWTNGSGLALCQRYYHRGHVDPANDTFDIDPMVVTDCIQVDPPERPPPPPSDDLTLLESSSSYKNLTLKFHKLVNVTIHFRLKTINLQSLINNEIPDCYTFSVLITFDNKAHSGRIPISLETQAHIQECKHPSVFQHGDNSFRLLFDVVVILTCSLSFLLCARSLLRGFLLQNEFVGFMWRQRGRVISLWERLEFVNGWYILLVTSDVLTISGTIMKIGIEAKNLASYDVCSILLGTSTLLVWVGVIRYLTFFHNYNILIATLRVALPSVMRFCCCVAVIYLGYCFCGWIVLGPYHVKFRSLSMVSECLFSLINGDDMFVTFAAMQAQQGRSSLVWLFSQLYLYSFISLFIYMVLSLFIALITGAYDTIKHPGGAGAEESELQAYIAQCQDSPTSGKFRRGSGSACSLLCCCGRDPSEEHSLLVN
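Tetracycline-induced TRPML1-DL cells are seeded and incubated overnight before loading with a no-wash Ca2+ dye and quencher. Agonist activity is taken from the 110 s fluorescence read following compound pin-transfer on an FDSS, before EC80 54-4 challenge.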
CtBP-E1A blk = blocks the CtBP interaction with E1A; AID 651724; AlphaScreen GST-E1A/His-CtBP binding, 1536-well; active compounds read low; control for the full effect not named in the record; activity change, % (concentration not given with the values); actives 0.49% (n = 340,000); in the data active means activity change below about -65%; inconclusive means about -30% to -65%; inactive means above about -30%; further: on the % scale 0 is the no-effect control and ±100 the full control effect
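Protein mix (5X: 125 nM each GST-E1A, His-CtBP) was incubated with pinned compound 2 h at 37 deg C in dark, in 50 mM Tris pH 8.0 buffer with 300 mM NaCl. Glutathione donor and nickel acceptor beads followed; AlphaScreen signal read after 1 h.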
Six1-Eya2 inh = blocks human Six1 binding to Eya2; activity change, % (concentration not given with the values); AlphaScreen GST-Six1/His-Eya2 binding, biochemical; active compounds read low; control for the full effect not named in the record; AID 651725; actives 0.56% (n = 360,000); in the data active = activity change below about -65%; inconclusive = about -30% to -65%; inactive = above about -30%; further: on the % scale 0 is the no-effect control and ±100 the full control effect
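Six1/Eya2 binding was read as AlphaScreen signal after compounds were pinned into GST-Six1 plus His-tagged Eya2 (5X stock 250/500 nM) in pH 8.0 Tris/NaCl/TCEP buffer, beads added, then incubated 1 h, 37 C, dark.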
PINK1 expr mod = changes PINK1 expression | PINK1 immunofluorescence, high-content cytometry, 24 h | actives 0.2% (n = 410,000) | Potency, µM (top dose mostly 76.6 µM), without a hit: at the highest dose activation (PINK1 increase), most hits filed as activators; active = well fitted activation curve with a large enough effect; inconclusive = small, poorly fitted or top-dose-only effect; inactive = flat fitted curve, though single readings scatter; cell line not stated here;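 further: potency means the concentration at half of the fitted maximal effect; % of control where 0% means no effect; nearly all actives have a fitted effect of over 65% in size; a mitochondrial uncoupler was the plate control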
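Cells are seeded, rested 12 hours, then given compound at five concentrations or DMSO for 24 hours. After fixation, blocking and antibody staining, PINK1 amount and mitochondrial localization are scored; CCCP serves as control.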
D2 agonist = activates the human D2 dopamine receptor; AID 624465; DiscoveRx PathHunter D2 beta-arrestin, luminescence, 90 min; 100% = 57 uM dopamine signal; activation, % (test concentration not listed); actives 0.084% (n = 360,000); P14416; in the data active = activation above about 40%; inconclusive = about 15% to 40%; inactive = below about 15%; further: compound concentration not given in the record; the text of the record calls up to 30% inactive
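Agonist mode: compounds alone added to overnight-plated D2 PathHunter cells for 90 min at 37 C, with 57 uM final dopamine (EC100) defining full response. Beta-arrestin recruitment detected by chemiluminescent reagent, read after 1 h at ambient temperature.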
Numbers without * were called inactive; ? = inconclusive; / = no result given; & = joins results of further samples; [ ] = dose if it differs, or a comment.

SMILES	D2 PAM	TRPML1 agonist	CtBP-E1A blk	Six1-Eya2 inh	PINK1 expr mod	D2 agonist
COCCn1cc(C(=O)N2CCCC(C)C2)c2c3ccccc3n(C)c2c1=O (stereo not given)	-6	-0.1	3	-1	?	1.5
O=C(Nc1ccc(N2CCN(C(=O)c3ccco3)CC2)c(Cl)c1)c1cccnc1	0	-0.6	1	-17	-1.8%	1.8
COCCn1c(COc2ccc(OC)cc2)nc2ccccc21	-3	0.6	1	1	-0.3%	-0.9
COc1ccc(Cn2cc(CN3CC(N4CC=CC4)CS3(=O)=O)nn2)cc1 (stereo not given)	/	-0.7	4	-7	1.2%	/
O=C(COC(=O)c1ccco1)Nc1ccc(N2CCOCC2)cc1	-3	2.6	-14	9	-4.0%	-3.0
CC(/C=N\NC(=O)Cn1c(C)nc2ccccc21)=C\c1ccccc1	-9	0.5	-2	-6	4.5%	0.3
COC(=O)/C=C1/C(=O)N/C(=N\c2nc(C)cc(C)n2)N1c1ccc(OC)cc1	-2	-0.2	8	0	-0.8%	-22
O=c1cc(-c2ccccc2[N+](=O)[O-])oc2ccccc12	4	0.4	-6	5	2.6%	-23
O=C(Nc1nccs1)C1CCN(S(=O)(=O)c2c(Cl)cccc2Cl)CC1	4	-0.8	10	1	-0.5%	0.0
O=C(CN1C(=O)c2ccccc2C1=O)Nc1ccc(S(=O)(=O)NCC2CCCO2)cc1 (stereo not given)	-5	0.5	11	3	/	1.2
CCc1c(C(=O)N/N=C/c2ccco2)nnn1-c1nonc1N	2	0.5	0	7	-0.9%	-4.1
O=C1CCCN=C(Nc2ccc(F)c(Cl)c2)S1	0	1.8	13	8	-0.3%	-6.7
Cc1cc(C)c(C(=O)COC(=O)Cn2cnnn2)cc1C	-17	0.2	-9	-1	8.9%	-1.7
COc1ccccc1NC(=O)Nc1nc(CC(=O)N2CCN(c3ccccc3OC)CC2)cs1	-13	0.4	-7	-21	-1.5%	0.7
COc1cc(Nc2ccccn2)cc(C(=O)Nc2cccc(C(F)(F)F)c2)c1	-3&-12	0.6&-0.2	6&2	-2&-14	7.0%&-0.4%	1.9&2.4
Cc1nn(C)cc1CN(C)C(=O)CCc1nnc(CCC2CCCCC2)o1	-8	-0.1	-3	14	3.6%	-2.6
C=CCNC(=O)NC(=O)c1csc([N+](=O)[O-])c1	-2	-0.3	1	12	-0.7%	-6.1
Cc1cc(Br)cc(C)c1NC(=O)c1ccc(C#N)cc1F	1	-0.3	7	8	0.6%	1.2
O=C(NN1C(=O)NC2(CCCCC2)C1=O)c1cccs1	-4	-0.1	0	-3	1.6%	-0.7
Cc1ccc(-c2[nH]c3ccccc3c2SCCNC(=O)c2ccc(S(=O)(=O)N3CCOCC3)cc2)cc1	-9	0.0&0.0	-3	-1	2.6%&0.5%	-4.7
CC1(C(=O)Nc2nccs2)CCN1C(=O)CC(c1ccccc1)c1ccccc1 (stereo not given)	1	-1.0	-4	2	-0.2%	0.8
COc1cc(OC)c(C2=NOC(C(=O)N3CCN(C(=O)c4ccco4)CC3)C2)cc1Cl (stereo not given)	-13	-1.3	-1	-14	0.4%	-4.7
CCn1c(SCC(=O)NC2CCCC2)nnc1-c1c[nH]c2ccccc12	-2	-0.4	-2	-2	-0.1%	0.9
CC1Cc2ccccc2N1C(=O)CSc1nnc2sc3ccccc3n12 (stereo not given)	-12	2.2	0	-3	-2.2%	-4.7
COc1ccc(NC(=O)c2cccc(Cn3cc(Br)c([N+](=O)[O-])n3)c2)c(C)c1	-5	0.8	/	2	1.9%	0.5

Additional structures:
SMILES	D2 PAM	TRPML1 agonist	CtBP-E1A blk	Six1-Eya2 inh	PINK1 expr mod	D2 agonist
COc1ccc(OCC(=O)Nc2nnc(-c3ccco3)s2)cc1	-5	0.1	9	-2	-2.0%	-5.2
COc1ccccc1NC(=O)Nc1ccc(C)cn1	14	/	/	-2	0.7%	4.7
CCOC(=O)C1CCCN(CCC(=O)Nc2cc(OC)ccc2OC)C1 (stereo not given)	-18	-0.6	3	-2	0.8%	4.7
Cc1cccc(NC(=O)CN2C(=O)/C(=C3\SC(=S)N(CC4CCCO4)C3=O)c3ccccc32)c1 (stereo not given)	9	0.3	/	2	1.1%	14
COc1ccc(C2N(c3ccccc3)C(=S)N3CCCN23)cc1 (stereo not given)	-15	4.3	7	2	-0.6%	-5.7
CC(C)c1ccc(NC(=O)COC(=O)C2=COCCO2)cc1	2	-1.3	2	-3	2.2%	0.1
COc1cc(OC)c2c(-c3cccc(/C=C/c4ccc(F)cc4)c3)cc(=O)oc2c1	6	3.8	1	8	9.7%	-0.8
CCOc1ccc(S(=O)(=O)Nc2ccccc2C(=O)Nc2ccccc2N2CCOCC2)cc1	4	1.2	-4	-1	11µM*	-1.2
CCc1nnc(NC(=O)CSc2nnnn2-c2cccc(C(=O)OC)c2)s1	-2	0.8	0	5	-2.0%	0.4
CCOC(=O)c1sc(Nc2nc(OC)cc(OC)n2)nc1C	-9	1.9	-21	-3	1.6%	-4.9
CCS(=O)(=O)N1N=C(c2cccc(NS(C)(=O)=O)c2)CC1c1ccccc1 (stereo not given)	0	-0.5	2	-1	25%	0.9
O=C(CSc1ccc(-c2ccccc2)nn1)Nc1ccc2c(c1)OCCO2	-5	0.0	9	-24	-2.3%	-1.0
COc1cccc(NC(=O)C2(C)CCN2CCc2ccccc2)c1 (stereo not given)	-9	-0.1	10	8	-0.4%	-2.6
CCOc1ccc(NC(=O)c2ccccc2NS(=O)(=O)c2ccc(F)cc2)c([N+](=O)[O-])c1	3	3.3	-26	-25	?	0.0
O=C1Nc2ccccc2C1Cc1ccccn1 (stereo not given)	0	-0.1	-4	-17	0.1%	-2.5
COc1ccc(-c2nnc(SCC(=O)Nc3ccc(Cl)cc3)n2C)cc1	-7	-0.2	3	2	-3.6%[38.3 µM]	-0.9
COc1ccc(CC(N)c2csc(Nc3cc(NCCCO)ncn3)n2)cc1 (stereo not given)	-15	-0.6	-93*	-91*	2.6%	-5.9
Cc1ccc(NC(=O)N(CCCN2CCOCC2)Cc2cccs2)cc1C	-13	-0.1	-26	10	1.0%	-2.4
COC(=O)C(NC(=O)CN1C(=O)c2ccccc2C1=O)c1ccc(O)c(OC)c1 (stereo not given)	-3	1.0	-5	1	1.8%	-3.0
COc1cc(Cn2c3ccc(NC(=S)NCc4ccc(C)cc4)cc3c(=O)n2C)ccc1F	8	-0.6	-20	-11	4.9%	3.6
CC(=O)Nc1ccc(C(=O)CSc2nc3ccccc3n2CC(=O)N2CCCC2)cc1	-2	1.1	10	0	5.2%[38.3 µM]	2.1
Cc1oc(-c2cc(F)ccc2F)nc1CN1CCN(c2cnccn2)CC1	-13	-0.2	5	-4	-1.1%	-1.9
COc1cc(NC(=O)C/C(C)=N/NC(=O)c2ccccn2)c(OC)cc1Cl	-2	-0.3	-19	?	1.1%	0.4
Cc1cccc(NC(=O)CN2CCN(CC(=O)Nc3cccc(C)c3)CC2)c1	1	1.9	10	5	-3.3%[38.3 µM]	1.1
CC1CCN(CCOc2ccc(OCc3ccccc3)cc2)CC1	-34	3.1	1	-19	?	-10

In the list so far, 3 have a thiophene ring, fused or not:
SMILES	D2 PAM	TRPML1 agonist	CtBP-E1A blk	Six1-Eya2 inh	PINK1 expr mod	D2 agonist
C=CCNC(=O)NC(=O)c1csc([N+](=O)[O-])c1	-2	-0.3	1	12	-0.7%	-6.1
O=C(NN1C(=O)NC2(CCCCC2)C1=O)c1cccs1	-4	-0.1	0	-3	1.6%	-0.7
Cc1ccc(NC(=O)N(CCCN2CCOCC2)Cc2cccs2)cc1C	-13	-0.1	-26	10	1.0%	-2.4

Remaining list, next part.
SMILES	D2 PAM	TRPML1 agonist	CtBP-E1A blk	Six1-Eya2 inh	PINK1 expr mod	D2 agonist
CCc1ccc(NC(=O)CSc2nnc(SCC(=O)Nc3ccc(CC)cc3)n2N)cc1	-8	-0.3	-2	3	8.6%	-0.4
O=C(NCCCN1CCOCC1)C(=O)N/N=C/c1ccc2c(c1)OCO2	-6	-0.4	3	3	-0.7%	-3.9
CSc1sc(C(=O)OC(C)C)c2c1C(=O)CC(C)(C)C2	-1	1.7	11	6	1.5%	4.9
Cc1cc(C)n(-c2c(F)c(F)c(CN3CCOCC3)c(F)c2F)n1	0	-1.4	7	7	0.3%	2.0
Cc1ccc(/C=N/NC(=O)CSc2nc3ccccc3c(=O)n2-c2ccccc2)s1	-15	0.6	7	1	3.6%	-0.8
COc1cccc(CNC(=O)c2ccc(C3SCCS3)cc2)c1	3	-0.2	3	-6	-0.2%	1.9
CCSC(=O)N(CC)CC(=O)Nc1c(CC)cccc1CC	-3	-1.1	6	2	-1.7%	-2.5
CCc1ccccc1NC(=O)c1cnccn1	-2	0.2	7	3	3.5%	-5.1
CCOC(=O)Nc1c(C)n(C)n(-c2ccccc2)c1=O	-10	-0.3	2	6	-2.4%[38.3 µM]	-1.2
CN1/C(=C\C(=S)NC(=O)c2cccc(Br)c2)C(C)(C)c2ccccc21	-26	1.0	-70*	-73*	4.7%	-4.2
O=C(CSc1c2c(nc3ccc(Cl)cc13)CCCC2)NCCCN1CCOCC1	-7	-0.8	/	0	1.6%	0.4
Cc1ccc(-c2nn3c(C)nnc3s2)cc1NC(=O)c1ccco1	-3	1.3	4	1	-2.5%	-2.6
Cc1cccc(N=N/C(=C\O)C(=O)c2ccc(Br)cc2)c1	-3	1.3	0	-16	-1.4%	-1.5
COc1ccc(-n2nc3c(c2NC(=O)CC(C)C)CS(=O)C3)cc1 (stereo not given)	-12	-0.8	2	4	-1.1%	-2.1
Cn1c(COc2ccccc2)nnc1SCC(=O)Nc1nnc(C2CC2)s1	-2	0.4	2	8	1.0%	-4.2
CCOc1cccc(-c2c(C(=O)N/N=C(\C)c3ccccn3)nnn2-c2nonc2N)c1	-11	0.0	/	?	1.9%	-11
Cc1cc(C(=O)Nc2c(C)n(C)n(-c3ccccc3)c2=O)on1	-4	-0.6	0	-6	-0.2%	-8.5
Cc1cc(N2CCOCC2)ccc1/C=C1\NC(=O)N(CC(=O)Nc2ccc(F)cc2)C1=O	-8	2.2	-1	-11	-0.5%	-3.6
CCCc1cc(C(N)=O)c(NC(C)=O)s1	-2	-0.1	8	-1	3.2%[38.3 µM]	-2.7
Cc1nn(-c2ccccc2)c2c1c(C)c(CCC(=O)NCC1CCCO1)c(=O)n2C (stereo not given)	-2	-0.2	12	9	2.8%	-0.6
Cc1nc(NCC2CC2)c2nnn(Cc3ccccc3)c2n1	-15	-1.4	4	-1	7.1%	-2.7
COc1ccc(/C=N/NC(=O)c2cccc(NC(=O)c3ccc(F)cc3)c2)c(C(=O)O)c1OC	-4	0.1	-27	-13	1.5%	-4.6
Cc1ccc(N2CC(C(=O)N3CCCc4ccccc43)CC2=O)cc1 (stereo not given)	-28	0.1	13	0	/	-4.2

Taken from above:
PINK1 expr mod result of Cc1cc(C)n(-c2c(F)c(F)c(CN3CCOCC3)c(F)c2F)n1 → 0.3%
D2 PAM result of O=C(CSc1c2c(nc3ccc(Cl)cc13)CCCC2)NCCCN1CCOCC1 → -7
CtBP-E1A blk result of COc1ccc(-n2nc3c(c2NC(=O)CC(C)C)CS(=O)C3)cc1 (stereo not given) → 2
D2 PAM result of CCc1ccc(NC(=O)CSc2nnc(SCC(=O)Nc3ccc(CC)cc3)n2N)cc1 → -8
TRPML1 agonist result of CCCc1cc(C(N)=O)c(NC(C)=O)s1 → -0.1
D2 agonist result of Cc1ccc(/C=N/NC(=O)CSc2nc3ccccc3c(=O)n2-c2ccccc2)s1 → -0.8
